# High-throughput results (PubChem BioAssay)
# PINK1 expr mod – A Quantitative High throughput Screen to Identify Chemical Modulators of PINK1 Expression; Potency, µM (series often up to 76.6 µM), inactives show top-dose activation (PINK1 increase), actives largely listed as activators; PINK1 immunofluorescence, high-content cytometry, 24 h; 410,000 compounds, 0.2% hits; active = well fitted activation curve with a large enough effect; inconclusive = small, poorly fitted or top-dose-only effect; inactive = flat fitted curve, though single readings scatter; cell line not stated here;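 also: % of control where 0% means no effect; nearly all actives have a fitted effect of over 65% in size; a mitochondrial uncoupler was the plate control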
#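 PINK1 protein level read as immunofluorescence by microplate cytometer in a fixed, stained stable cell line after 24 h exposure to five compound concentrations, with CCCP as control.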
# ClpP mod – qHTS Assay for Activators of ClpP; Potency, µM (doses to about 57.5 µM), inactives show top-dose activity change, negative = active; 340,000 compounds, 1.9% hits; ATP-dependent Clp protease proteolytic subunit (Bacillus subtilis (strain 168)), P80244; purified B. subtilis ClpP, FRET peptide cleavage, 20 min; active = well fitted falling curve with a large enough effect; inconclusive = small, poorly fitted or top-dose-only effect; inactive = no such curve, though single readings can be large or run the other way; also: the source files actives as falling curves though it sought activators and does not explain the sign; nearly all actives have a fitted effect of over 65% in size; many hits overshoot -100%
# Target sequence (P80244 whole entry, looked up): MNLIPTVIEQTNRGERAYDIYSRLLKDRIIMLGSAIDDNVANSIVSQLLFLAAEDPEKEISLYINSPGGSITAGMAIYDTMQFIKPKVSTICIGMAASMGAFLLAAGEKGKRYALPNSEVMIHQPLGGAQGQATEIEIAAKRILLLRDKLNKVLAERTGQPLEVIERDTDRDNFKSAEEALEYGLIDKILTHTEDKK
#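 FRET quenching reversal measured ClpP activation: 10 microg/mL B. subtilis ClpP at pH 8 with the FRET-FV decapeptide, read at 430 nm after 320 nm excitation. The 20-min minus 0-min signal was scaled between DMSO/no-enzyme wells and ADEP (5.8 microM final).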
# * = called active by the depositor; ? = inconclusive. Potency is read from the fitted curve at half-maximal effect.
SMILES,PINK1 expr mod,ClpP mod
Cc1ccc(C(C)C)c(OCC(=O)Nc2c(C(=O)c3ccc(F)cc3)oc3ccccc23)c1,3.4%,-23%
Cc1ccc(C)c(N2CCN(C(=O)NCc3noc4ccc(C)cc34)CC2)c1,3.4%,0.1%
Cc1nnc(SCc2cc(=O)c3ccccc3[nH]2)s1,3.5%,-6.2%
O=C(Nc1cc(F)ccc1F)C1CCN(C(=O)c2cnn(-c3ccccc3)c2-n2cccc2)CC1,-0.2%,0.6%
CCOc1ccccc1NC(=O)Nc1nnc(N2CCCC(C)C2)s1 (stereo not given),0.3%,-2.4%
COC(=O)c1ccc2nc(-c3ccc(Cl)cc3)c(Cc3ccsc3)n2c1,0.9%,?
Cc1ccc(-c2nc3c(C)cccn3c2Nc2ccccc2C)s1,4.3%,?
Cc1ccc(Cl)cc1Nc1nn2c(=O)c3ccc(C(=O)NC(C)c4ccccc4)cc3nc2s1 (stereo not given),2.0%,?
Cc1ccc(NC(=O)C(=O)NCCc2sc(-c3ccc(Cl)cc3)nc2C)cc1C,1.9%,-10%
O=C(COCc1cc(-c2cccs2)on1)N1CCN(c2ccccc2)CC1,0.7%,-3.1%
Cc1cccc(-n2cc(-c3ccccc3)c3c(NC(C)C)ncnc32)c1,12%,-15%
Cc1cccc(Oc2nc3c(c(=O)n(C)c(=O)n3C)n2C)c1C,0.8%,-0.1%
COc1ccc(C)cc1NC(=O)C(NS(=O)(=O)c1cccc2nsnc12)c1ccccc1 (stereo not given),1.0%,1.1%
CCCCN(C)C(=O)CSc1nc2ccccc2nc1Cc1ccc(C)cc1,?,-3.8%
O=C(Cn1c(SCc2cccc(F)c2)nc2ccncc21)Nc1ccc(Cl)cc1F,4.5%,27%
CC(C)Oc1ccccc1-c1nc(SCC(=O)c2ccc(F)cc2)n[nH]1,4.2%,-2.9%
CCOC(=O)[C@]12CCC=C1N(CCC1=CCCCC1)C(=O)[C@H](CC(=O)NCC1CCCCC1)C2,-0.2%,0.5%
Cc1ccc(Nc2cc(C(=O)NCCc3ccccc3)c3ccccc3n2)c(C)c1,6.1%,239%
O=C(NC1CCCC1)c1ccc2c(=O)n(Cc3ccccc3)c(SCc3ccc([N+](=O)[O-])cc3)nc2c1,-0.4%,0.5%
CC(=O)Nc1ccc(S(=O)(=O)NCc2ccc3c(c2)CCN3C(C)=O)cc1,1.2%,0.0%
Cc1ccc2nc(N(Cc3cccnc3)C(=O)c3cccs3)sc2c1,1.7%,38%
Cc1cccc(N2CCN(C(=O)c3ccc(NC(=O)c4nsc5ccccc45)cc3)CC2C)c1 (stereo not given),-0.7%,-2.1%
Cc1cc(C)cc(OCC(=O)N(Cc2ccc(C)o2)C2CCS(=O)(=O)C2)c1 (stereo not given),-1.3%,2.7%
COc1ccc(N2CCN(c3ccc(-c4nc(-c5ccccc5)no4)cc3[N+](=O)[O-])CC2)cc1,0.1%,1.0%
COC(=O)c1c(NC(=O)CCCOc2cccc(C)c2)sc2c1CCC2,4.9%,-5.9%
O=c1[nH]c2ccc(NCc3ccc(-c4ccccc4)o3)cc2[nH]1,4.9%,11%
Cc1ccc(C)c(Cn2c(=O)n(CCCC(=O)NCc3ccc4c(c3)OCO4)c(=O)c3sccc32)c1,1.4%,-25%
CCCCNC(=O)C1CCN(c2nc3ccc(C)cc3[nH]2)CC1,-0.2%,-1.6%
CCCOc1cccc(C2c3c(oc4cc(C)c(C)cc4c3=O)C(=O)N2CCCN2CCOCC2)c1 (stereo not given),0.0%,-5.7%
COc1cc(OC)c(N(C)C(=O)c2c(C)oc3ncn(CC(C)C)c(=O)c23)cc1Cl,2.3%,0.1%

# Entries of single compounds, quoted from the list:
# COc1ccc(N2CCN(c3ccc(-c4nc(-c5ccccc5)no4)cc3[N+](=O)[O-])CC2)cc1 reads PINK1 expr mod = 0.1%; ClpP mod = 1.0%
# Cc1ccc(C)c(Cn2c(=O)n(CCCC(=O)NCc3ccc4c(c3)OCO4)c(=O)c3sccc32)c1 reads PINK1 expr mod = 1.4%; ClpP mod = -25%

# (continued)
SMILES,PINK1 expr mod,ClpP mod
CC1CCC(Nc2nc3c(-c4cccc(C(F)(F)F)c4)nnn3c3ccccc23)CC1 (stereo not given),-0.5%,3.6%
CC1=C(C(=O)Nc2ccccc2)C(c2ccc(C)cc2)n2nc(SCc3ccccc3C)nc2N1 (stereo not given),1.4%,-3.5%
COc1cc2nc(SCC(=O)Nc3ccc(F)cc3)n3nc(CCn4c(C)nc5ccccc54)nc3c2cc1OC,2.6%,-8.1%
Cn1nccc1C(=O)NCc1ccc2c(c1)CCN2C(=O)c1ccc(F)cc1,-0.3%,-4.1%
CC1CCCN(Cc2c(O)ccc3c(=O)c(-c4ccccc4Cl)c(C(F)(F)F)oc23)C1 (stereo not given),2.6%,-0.2%
COc1ccccc1-c1nn2c(=O)cc(CN3CCN(S(=O)(=O)c4ccc(C)cc4)CC3)nc2s1,5.4%,-5.3%
COc1ccc(-c2ccc(NS(=O)(=O)c3cccc(Cl)c3)cc2)nn1,-0.1%,0.9%
CN(C(=O)c1c2c(nc3ccccc13)C(=O)N(C1CCCCC1)C2)c1ccc(F)cc1,1.4%,-3.8%
Cc1ccc(-c2cn3nc(N4CCC(C(=O)Nc5ccccc5C)CC4)sc3n2)cc1,2.2%,0.4%
Cc1ccc(Nc2nc3c(S(=O)(=O)c4ccccc4)nnn3c3ccc(Cl)cc23)c(C)c1,-0.7%,-16%

# Among those listed so far, these have a nitro group on carbon:
SMILES,PINK1 expr mod,ClpP mod
O=C(NC1CCCC1)c1ccc2c(=O)n(Cc3ccccc3)c(SCc3ccc([N+](=O)[O-])cc3)nc2c1,-0.4%,0.5%
COc1ccc(N2CCN(c3ccc(-c4nc(-c5ccccc5)no4)cc3[N+](=O)[O-])CC2)cc1,0.1%,1.0%

# New compounds follow:
SMILES,PINK1 expr mod,ClpP mod
Cc1ccc(Cl)cc1NC(=O)c1oc2ccc(S(=O)(=O)N3CCCCCC3)cc2c1C,-0.7%,12%
CC(C)(C)OC(=O)N1CCC(c2c(C(=O)Nc3ccc4c(c3)OCO4)cnn2-c2ccccc2)CC1,-0.5%,-4.0%
Cc1ccc(C)c(N2CCN(Cc3nnc(-c4ccc5c(c4)OCO5)o3)CC2)c1,-0.3%,-24%
Cc1ccc2occ(CC(=O)N3CCN(c4cccc(Cl)c4)CC3)c2c1,11%,-3.4%
CC1CCCN(S(=O)(=O)c2cc3c(cc2Cl)NC(=O)CO3)C1 (stereo not given),2.1%,-0.9%
CCOC(=O)CSc1nnc2n(-c3ccccc3)c(=O)c3c4c(sc3n12)CC(C(C)(C)C)CC4 (stereo not given),-1.5%,-5.2%
CCOC(=O)c1c(NC(=O)/C=C/c2ccc(OCC)cc2)sc(C)c1C,0.1%,-1.1%
Cc1oc(-c2ccc(Cl)cc2)nc1CSc1nnc(C)n2c1cc1sccc12,-1.1%,-2.7%
CN(C(=O)CSc1nc2ccc(NC(=O)c3cccs3)cc2s1)c1ccccc1,-0.7%,?
CCS(=O)(=O)c1ccccc1C(=O)Nc1ccc(-c2nc3ccccc3s2)cc1,1.8%,4.7%
COCCCn1c(=O)c2sccc2n2c(CCCC(=O)NC3CCC(C)CC3)nnc12 (stereo not given),4.4%,-11%
CCOc1ccc(C(=O)NCCc2sc(-c3ccc(OC)c(OC)c3)nc2C)cc1,?,4.2%
CCNC(=O)C1CCN(Cc2cc3ccccc3n2Cc2ccc(C)cc2)CC1,0.3%,0.6%
Cc1ccc(CNC(=O)CN2C(=O)C3CCCCN3c3ccc(C(=O)N4CCCC4)cc32)cc1 (stereo not given),-1.4%,-1.7%
CC(C)Sc1nc(-c2cccs2)nc2cc(Cl)ccc12,1.4%,-2.5%
CC(C)C1N=C2c3ccccc3N=C(SCC(=O)NCc3ccc(Cl)cc3)N2C1=O (stereo not given),0.1%,4.1%
CCOC(=O)c1cccc(NC(=O)C2COc3ccc(OC)cc3C2)c1 (stereo not given),-0.7%,-6.5%
O=C(CSc1nc2c([nH]c3ccccc32)c(=O)n1-c1ccc(F)cc1)N1CCCCC1,-4.4%,3.6%
COc1ccc(NC(=O)c2c(NCc3ccc(N(C)C)cc3)sc3c2CCC3)cc1,2.2%,0.4%
CN1C(=O)c2ccccc2Sc2ccc(NC(=O)c3ccc(C#N)cc3)cc21,11%,0.4%

# Reprinted from the part before: two compounds, then new ones.
SMILES,PINK1 expr mod,ClpP mod
COc1ccc(NC(=O)c2c(NCc3ccc(N(C)C)cc3)sc3c2CCC3)cc1,2.2%,0.4%
CN1C(=O)c2ccccc2Sc2ccc(NC(=O)c3ccc(C#N)cc3)cc21,11%,0.4%
COc1ccc(S(=O)(=O)N2CCOCC2)cc1,0.2%,1.1%
Cc1ccc(-n2ncc3c(NCCCn4ccnc4)ncnc32)cc1,-0.4%,4.4%
O=C1c2ccccc2-c2cc([N+](=O)[O-])c([N+](=O)[O-])cc21,-0.9%,-1.0%
COc1cc(NC(=O)CC2C(=O)N(c3cccc(C)c3)C(=O)N2Cc2cccs2)cc(OC)c1 (stereo not given),2.4%,-2.0%
CCOc1ccc(CNC(=O)c2ccc3c(c2)c(C)c(C)n3Cc2ccc(Cl)cc2)cc1,0.1%,16µM*
Cc1cccc(C)c1OCC(=O)NCC1(N(C)C)CCCCC1,-1.6%,-4.1%
CCOc1ccccc1NC(=O)N1CC(C)Oc2ccc(Cl)cc21 (stereo not given),2.1%,0.9%
CC(C)C[C@@H]1COc2cccc(N3CCC[C@H]3CO)c2S(=O)(=O)N1,-0.3%,-11%
CCCOc1ccc(C2c3c(oc4ccccc4c3=O)C(=O)N2c2nnc(C(C)C)s2)cc1 (stereo not given),0.6%,-1.5%
CCOC(=O)Cc1c(C)nc2c(-c3ccc(OC)c(OC)c3)c(C)nn2c1C,2.0%,0.9%
CC(C)CCNC(=O)CCCN1C(=O)c2ccccc2Sc2ncccc21,1.9%,0.9%
Cc1ccc(S(=O)(=O)C(CNC(=O)c2c(F)cccc2F)c2ccco2)cc1 (stereo not given),0.8%,-0.4%
CN1C(=O)C2(c3ccccc31)N(c1ccc(F)c(Cl)c1)C(=O)CS2(=O)=O (stereo not given),?,0.8%
Cc1ccc(S(=O)(=O)N2C[C@@]3(O)Cn4c(=O)ccc(=O)n4C[C@@]3(OC(=O)NCc3ccccc3F)C2)cc1,-0.6%,-16%
COc1ccc2c(c1)NC(c1ccc(Cl)cc1)=NC(c1cccs1)=N2,1.7%,3.3%
CSc1ccc(-c2nc3ncccn3c2Nc2ccc(C)c(C)c2)cc1,4.3%,-3.1%
CC1CCc2c(sc(NC(=O)c3cc(-c4ccc(F)cc4)on3)c2C(N)=O)C1 (stereo not given),4.1%,0.8%
COc1cccc(-n2c(SCC(N)=O)nc3c(oc4ccccc43)c2=O)c1,4.4%,-2.0%
Cc1ccccc1OCCSc1nnc(-c2cccs2)o1,0.3%,-28%
Cc1cc(C)cc(OCC(=O)NCC(c2ccc(Cl)cc2)N2CCCCC2)c1 (stereo not given),13%,-0.5%
CCc1ccc2oc(C(=O)Nc3ccccc3C(=O)OC)cc(=O)c2c1,3.0%,0.5%
COc1cccc(NC(=O)Cn2c(=O)n(-c3ccccc3)c(=O)c3c2c2cc(OC)ccc2n3C)c1,1.0%,4.4%
COc1cccc(-n2ccnc2SCC(=O)Nc2ccc(Cl)c(Cl)c2)c1,14%,-6.3%
Cc1ccc(CCNc2nc3ccccc3c3nc(-c4cccnc4)nn23)cc1,-0.9%,-2.9%
COc1cccc(NC(=O)Cn2c(=O)n(-c3ccc(C)cc3)c(=O)c3ccccc32)c1,-1.0%,-3.3%
CC(=O)Nc1ccc(S(=O)(=O)NCCc2csc3nc(-c4cccc(C)c4)nn23)cc1,0.0%,1.4%
CCc1cccc(CC)c1NC(=O)Cc1csc(C)n1,3.6%,1.2%
CCCCNC(=O)c1ccc2c(c1)NC(=O)C(C(C)C)N2 (stereo not given),2.4%,?
Cc1ccc2c(c1)N(C(=O)N1CCC(C(=O)NCCC3=CCCCC3)CC1)CC(C)O2 (stereo not given),1.1%,0.3%
COc1cc2ccccc2cc1C(=O)N1CCN(c2nc3c(F)cc(F)cc3s2)CC1,-1.4%,-12%
CCOCCn1ccc2c(OCC(=O)NCc3ccc(F)cc3)cccc2c1=O,-0.7%,-21%
O=S1(=O)CC(N2CCN(Cc3ccccc3F)CC2)CN1Cc1cn(Cc2ccc(C(F)(F)F)cc2)nn1 (stereo not given),0.1%,1.7%
COc1cc(C(=O)NC(c2ccc(Cl)cc2)c2cc(Cl)c3cccnc3c2O)cc(OC)c1OC (stereo not given),?,-0.7%
O=C(Nc1ccc(F)cc1)c1cccc(N2CCCS2(=O)=O)c1,0.3%,-1.4%
Cc1cccc(NC(=O)N2CCC(n3c(C)nc4cccnc43)CC2)c1,0.2%,0.3%

# Not all compounds are listed; count on the stated rates, not on these rows.
